# Compound activity: PubChem BioAssay, Johns Hopkins Ion Channel Center
# KCNQ2 inh: KCNQ2 potassium channel inhibitors, primary screen, cell-based, CHO-K1, FluxOR thallium flux, B-score (AID 2156); B-score at 10 µM; 20 min; stronger effect = lower value; only compounds with negative scores are shown here; some inactives read as strong as hits; 1.1% of 310,000 active;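 active = fluorescence ratio B-score at most minus 3 library SDs, with starting brightness B-score within 2 library SDs, cut at about -5.5 in these data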
# Target sequence (O88943 whole entry, looked up): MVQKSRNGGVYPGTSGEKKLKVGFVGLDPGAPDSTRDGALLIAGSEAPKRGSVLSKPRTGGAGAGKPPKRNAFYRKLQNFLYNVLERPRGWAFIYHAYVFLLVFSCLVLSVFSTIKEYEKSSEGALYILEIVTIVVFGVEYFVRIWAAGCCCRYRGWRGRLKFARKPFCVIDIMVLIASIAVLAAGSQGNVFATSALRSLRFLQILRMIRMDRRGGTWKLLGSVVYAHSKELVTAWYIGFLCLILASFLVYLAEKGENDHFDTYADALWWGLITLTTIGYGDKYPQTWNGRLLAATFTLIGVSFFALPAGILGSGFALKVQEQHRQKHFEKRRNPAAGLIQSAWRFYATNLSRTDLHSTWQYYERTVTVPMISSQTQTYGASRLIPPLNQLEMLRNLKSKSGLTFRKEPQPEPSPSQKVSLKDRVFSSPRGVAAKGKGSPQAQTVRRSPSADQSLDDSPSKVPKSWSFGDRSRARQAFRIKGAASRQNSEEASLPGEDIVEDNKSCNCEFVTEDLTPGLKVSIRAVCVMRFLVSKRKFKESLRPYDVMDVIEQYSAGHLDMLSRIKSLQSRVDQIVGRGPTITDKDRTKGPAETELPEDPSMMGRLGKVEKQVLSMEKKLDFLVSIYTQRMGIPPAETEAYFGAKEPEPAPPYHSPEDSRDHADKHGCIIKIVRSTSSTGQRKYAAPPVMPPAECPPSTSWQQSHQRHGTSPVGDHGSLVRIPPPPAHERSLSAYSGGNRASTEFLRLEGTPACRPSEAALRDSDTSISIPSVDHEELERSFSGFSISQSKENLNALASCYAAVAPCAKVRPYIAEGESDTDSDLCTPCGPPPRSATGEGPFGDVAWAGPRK
# KCNQ2 inh baseline: recorded beside KCNQ2 inh, whose call it bears; B-score; measured here: initial fluorescence intensity artifact check;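 brightness before thallium and not channel activity; 0 = typical well and far values either way flag optical interference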
# * hit, by the source's call; i = inactive. Not all compounds are listed (hit frequency here may not be typical).
# Below each compound – KCNQ2 inh | KCNQ2 inh baseline
CCOc1cc(N2CCOCC2)c(OCC)cc1NC(=O)CN1C(=O)C2CC=CCC2C1=O (stereo not given)
    i | 0.74
Cc1cccc(NC(=S)NNC(=O)CCn2cc(C)cn2)c1
    i | 0.53
C/C(CC(=O)Nc1ccccn1)=N\NC(=O)c1ccc(C)cc1
    i | 1.2
COc1ccc(S(=O)(=O)N2CCOC2CNC(=O)C(=O)NCCN2CCOCC2)cc1 (stereo not given)
    i | -0.62
Cc1cccn2c(CNC3CCCc4ccccc43)c(C(=O)N3CCOCC3)nc12 (stereo not given)
    i | 0.23
Cc1onc(-c2ccccc2Cl)c1C(=O)N1CC(C)CC(C)C1 (stereo not given)
    i | 0.34
CCn1c(C(C)NC(=O)c2ccc(OC)c(OC)c2)nc2ccccc21 (stereo not given)
    i | 0.13
CN(CCc1cnn(C)c1)Cc1cn[nH]c1-c1ccc(-c2ccccc2)cc1
    i | -0.18
Cc1cc2cc(CCNC(=O)CC(C)C)c(=O)[nH]c2cc1C
    i | -1.1
Cc1cc(C(=O)N2CCN(c3cc(Cl)ccc3C)CC2)on1
    i | 0.83
Cc1cc(NC(=O)CSc2nc3cc(C(=O)NCCCOC(C)C)ccc3c(=O)n2Cc2ccco2)no1
    i | 1.8
CCOc1ccc(CNC(=O)C2CCN(S(=O)(=O)c3ccc4c(c3)CCCC(=O)N4)CC2)cc1
    i | -0.26
COc1cc(NS(=O)(=O)c2ccc(Br)cc2)c(OC)cc1NC(=O)c1ccco1
    i | -0.34
Clc1cccc(-c2cc3nc4c(c(N5CCN(c6cnccn6)CC5)n3n2)CCCC4)c1
    i | 1.9
COc1ccc(N=C2C(=Nc3ccc(OC)cc3)N(c3ccc(N(C)C)cc3)C(=S)N2c2ccc(OC)cc2)cc1
    i | 0.46
O=C(Nc1ccc(C(F)(F)F)cc1)c1cc(-c2cccnc2)nc2ccc(Br)cc12
    i | -1.8
Nc1cc(N2CCOCC2)c(Cl)cc1[N+](=O)[O-]
    i | 0.02
Fc1ccccc1CNCC1CCCO1 (stereo not given)
    i | -0.78
COc1ccc(NC(=O)CN(C)C(=O)Cc2ccc3c(c2)OCCO3)cc1
    i | -0.89
NC(=O)C1(N2CCCCC2)CCN(C(=O)c2cccn3c(=O)c4cc(Cl)ccc4nc23)CC1
    i | 3.7
Cc1cccc(NC(=O)c2c(-c3ccccc3)noc2C)n1
    i | -1.5
COc1ccc(-c2cc(C(F)(F)F)nc(SCC(=O)N3CCOCC3)n2)cc1OC
    i | 1.8
CCn1c(=O)cc(SCC(=O)NCc2ccco2)c2ccccc21
    i | 0.8
O=C(COC(=O)c1cccc(Br)c1)Nc1ccc2[nH]c(=O)[nH]c2c1
    i | 0.32
O=C(O)CCNc1nc(-c2ccccc2)c2cc(Br)ccc2n1
    i | -1.3
COc1ccc(C2=NN(c3nc(C)cc(C)n3)C(=O)C2)cc1
    i | 1.7
CN(C)S(=O)(=O)N1CCCC(C(=O)c2ccc(-c3ccccc3)c(F)c2)C1 (stereo not given)
    i | -2.8
Cc1c(CC(=O)NCC(=O)O)c(=O)oc2cc3c(cc12)CCC(C)(C)O3
    i | -0.52
CCN(CC)C(=O)CSc1nnc2nnc3cc(C)ccc3n12
    i | 1.2
COc1cccc(C(=O)N2CCCC(Nc3ccc(C)c(C)c3)C2)c1 (stereo not given)
    i | 1.7

# Additional compounds follow:
# Below each compound – KCNQ2 inh | KCNQ2 inh baseline
O=C(Nc1cccc(O)c1)c1cccc(S(=O)(=O)N2CCCCCC2)c1
    i | 0.39
O=C(c1ccoc1)N1CCC(CO)(CCc2ccccc2)CC1
    i | -0.38
CC(=O)c1nnn(-c2c(F)cccc2F)c1C
    i | -1.3
COc1ccccc1CN(C(=O)CNC(=O)c1ccco1)C(C(=O)NCC1CCCO1)c1ccc(OC)c(OC)c1 (stereo not given)
    i | -0.82
OCCCCc1nccc2c1[nH]c1ccccc12
    i | -1.2
COc1ccc(S(=O)(=O)N2CCC(c3cc(-c4cccc5ccccc45)n[nH]3)CC2)cc1
    i | 0.35
CC(=O)NC(C)C12CC3CC(CC(CC(=O)O)(C3)C1)C2 (stereo not given)
    i | -2.8
Cc1ccc(S(=O)(=O)N(C)c2cc(S(=O)(=O)N3CCC(C)CC3)c(C)cc2C)cc1
    i | -2.4
Cc1cc2c(OCC(O)CNC(C)(C)C)cccc2[nH]1 (stereo not given)
    i | 1.6
Cc1ccc(S(=O)(=O)NCCC(=O)NCc2ccc3c(c2)OCO3)cc1C
    i | -1
Cc1cc(C)cc(NC(=S)/C(=C(\[O-])c2ccc(Cl)s2)[n+]2cccc(C)c2)c1
    -6* | 0.3*
CCC(C(=O)NCCCN1CCN(C)CC1)n1nc(C)n2c(cc3occc32)c1=O (stereo not given)
    i | 0.45
CCCCCN(C(=O)NC(=O)Nc1ccccc1C)S(C)(=O)=O
    i | 0.01
O=C(COC(=O)c1ccc[nH]c1=O)NCC1CCCO1 (stereo not given)
    i | -0.98
CCC(CC)NC(=O)COC(=O)c1cccc(C)c1O
    i | 0.46
Cc1nc(N2CCN(c3ccccn3)CC2)c2c(C)c(C(=O)Nc3ccc(F)cc3Cl)sc2n1
    i | -0.5
CCCCN(C(=O)CCNC(=O)NC12CC3CC(CC(C3)C1)C2)c1c(N)n(CCCC)c(=O)[nH]c1=O
    i | 0.14
COc1cc(OC)cc(C(=O)N[C@H](C(=O)NC23CC4CC(CC(C4)C2)C3)C(C)C)c1
    i | 0.94
COc1ccc(N2CC(C(=O)Nc3nnc(SCC(=O)NC(C)(C)C)s3)CC2=O)cc1 (stereo not given)
    i | -1.3
COCCCNc1nc2cc(OC)c(OC)cc2c2nc(-c3ccccc3)nn12
    i | 0.96
CCOC(=O)c1cnn(-c2nc(C)cc(C)n2)c1N
    i | 2.5
Cc1ccc(N(CC(=O)NCc2cccnc2)S(C)(=O)=O)cc1C
    i | 0.42
O=C1C=C(c2ccc(Cl)cc2)OC2(CCCC2)O1
    i | 1.7
Nn1c(SCC(=O)N2CCN(S(=O)(=O)c3ccccc3)CC2)nnc1-c1cccs1
    i | -0.84
COc1ccc(C2SCC(=O)N2c2c(C)n(C)n(-c3ccccc3)c2=O)cc1 (stereo not given)
    i | -0.27
O=C(Nc1cccc2ncccc12)c1ccc([N+](=O)[O-])o1
    i | -1.6
CCCCC1(C)NC(=O)N(CC(=O)Nc2ccc(S(=O)(=O)N3CCOCC3)cc2)C1=O (stereo not given)
    i | 3
COc1ccc(C)cc1Nc1n[n+](-c2ccccc2)c(-c2ccc(OC)c(OC)c2OC)s1
    i | -1.1
COc1ccc(C(CNC(=O)COc2ccc(Cl)cc2C)N2CCCCC2)cc1 (stereo not given)
    i | 2.1
CCOC(=O)c1cc(-c2ccc(OC)cc2)n(CCC(=O)NCCN2CCC(C)CC2)c1C
    i | -3.2

# (list continues)
# Below each compound – KCNQ2 inh | KCNQ2 inh baseline
COc1cc(/C=C/C(=O)O)cc(S(=O)(=O)Nc2cc(Cl)c(Cl)cc2Cl)c1OC
    i | -1.4
CC1CCCC(NC(=O)C2CCC(CNc3c(N4CCCC4)c(=O)c3=O)CC2)C1C (stereo not given)
    i | 0.22
COCc1ccc(CN2CCCC(CO)(Cc3cccc(OC)c3)C2)o1 (stereo not given)
    i | -1.6
CCOC(=O)C1(Cc2cccc(Cl)c2)CCCN(C(=O)c2ccc(C)nc2)C1 (stereo not given)
    i | 1
Cc1cccc(C(=O)NNC(=O)CCC(=O)Nc2cccc(Cl)c2C)c1
    i | -0.99
Cc1cc(OCC(O)CN2CCc3ccccc3C2)cc(C(C)C)c1 (stereo not given)
    i | -0.18
COC(=O)c1cnn(-c2ccc(Cl)cc2)c1/C=N/NC(N)=S
    i | 0.09
COc1ccc(NS(=O)(=O)c2ccc(N)cc2)nn1
    i | 0.3
CCC(OC(=O)C(NC(=O)c1ccccc1)c1ccccc1)C(=O)Nc1cc(C)on1 (stereo not given)
    i | -0.68
ON1C(c2ccccc2C(F)(F)F)N(O)[C@H]2CCCC[C@H]21 (stereo not given in full)
    i | 1.2
COC(=O)c1ccc(NC(=S)Nc2ccccc2)cc1
    i | -1.8
CCOC(=O)c1cc(-c2csc(COc3ccccc3)n2)on1
    i | 1.1
COCC(C)n1c(SCC(=O)NCCC2=CCCCC2)nc2ccccc2c1=O (stereo not given)
    i | 0.3
NS(=O)(=O)c1ccc2nc(NC(=O)CS(=O)(=O)c3ccccc3)sc2c1
    i | -1.7
CCCCCC(=O)N1CC2(CC)CN(C(=O)CCCCC)CC(CC)(C1)C2=O
    i | 4.1
O=c1c2ccccc2nc(-c2ccco2)n1Cc1ccccc1
    i | -0.82
COc1cccc(CNc2ccccn2)c1O
    i | 1.5
COc1ccc(NC(=O)C2=NNC(=O)CC2)cc1S(=O)(=O)N1CCCCC1
    i | -1.6
Cc1cc(S(=O)(=O)Nc2ccc(C(=O)NCC(c3ccco3)N3CCCC3)cc2)ccc1F (stereo not given)
    i | -0.15
COc1ccc(/C=C2\Sc3ccc(C(=O)N4CCc5ccccc5C4)cc3N(C)C2=O)cc1
    i | 0.2
Cc1ccc2nc(-c3ccc(NC(=O)CN4C(=O)NC(C)(c5ccc(OC(F)F)cc5)C4=O)cc3)sc2c1 (stereo not given)
    i | 2.9
COc1cc(OC)c(C(=O)Nc2ccc(S(=O)(=O)N3CCCCC3)cc2)cc1OC
    i | 2.1
Cc1cccc(Nc2cnn(C34CC5CC(CC(CC(=O)O)(C5)C3)C4)c(=O)c2Cl)c1
    i | -0.19
CCN1CCN(C(CNS(=O)(=O)c2cccs2)c2cccnc2)CC1 (stereo not given)
    i | 2.6
CCOc1ccccc1-c1nc(-c2ccc(C)nc2OC)no1
    i | 0.09
CCOC(=O)c1[nH]ncc1CN1CCCC(C(=O)c2ccc(OC)c(OC)c2)C1 (stereo not given)
    i | -0.55
c1ccc(C(c2nnnn2C2CCCC2)N2CCCCCC2)nc1 (stereo not given)
    i | 0.75
CCOC(=O)Cc1cc(=O)[nH]c(=O)[nH]1
    i | 2.6
CCOC(=O)C1C(c2cc(OC)c(O)c(OC)c2)NC(=S)NC1(O)C(F)(F)F (stereo not given)
    i | -2.6
c1ccc2c(-c3nnc4n3CCCCC4)c[nH]c2c1
    i | 0.6

# (next part)
# Below each compound – KCNQ2 inh | KCNQ2 inh baseline
Cc1ccccc1CNC(=O)CCCn1ncn2c(cc3occc32)c1=O
    i | -0.23
NS(=O)(=O)c1cc2c(cc1Cl)NC(CSCc1ccccc1)=NS2(=O)=O
    i | -0.18
Cc1cccc(S(=O)(=O)NCC2CCCO2)c1 (stereo not given)
    i | -0.15
COc1ccc(N2CCN(S(=O)(=O)c3ccc4c(c3)NC(=O)CS4)CC2)cc1
    i | -0.45
CC(C)OC(=O)C1C(=O)CC(C)(O)C(C(=O)OC(C)C)C1c1cccc([N+](=O)[O-])c1 (stereo not given)
    i | 0.01
Cc1c(-c2ccc(Cl)cc2Cl)nc2ccccc2c1C(=O)NCCN1CCOCC1
    i | -0.04
O=C(NCC1CCCO1)c1csc2c1CCCCC2 (stereo not given)
    i | -0.39
CCC(C)[C@H](NC(=O)NCc1ccc(S(N)(=O)=O)cc1)C(=O)O (stereo not given in full)
    i | -1.6
CC1CCC(C(C)C)C(OC(=O)Cn2nnc3c(cnn3-c3ccccc3)c2=O)C1 (stereo not given)
    -7.3* | -0.48*
CN(C)S(=O)(=O)c1ccc(N2CCCC2)c(C(=O)Nc2nc(-c3ccc(F)c(F)c3)cs2)c1
    i | -0.84
CS(=O)(=O)c1ccc2nc(NC(=O)C3CCCCC3)sc2c1
    i | -0.33
CCOC(=O)CN1C(=O)C(=O)N(Cc2c(Cl)cccc2Cl)C1=O
    i | -0.18
c1coc(CNC2CCCCCCC2)c1
    i | 1.2
COc1ccc(N(CC(=O)NCCc2ccccc2)C(=O)CCC(=O)Nc2nccs2)c(OC)c1
    i | -2.1
CCN(CC)C(=O)CSc1nnc(CNc2ccc(F)cc2)n1-c1ccccc1
    i | 0.18
CCCNc1nc(C)cc(-c2cc(C(=O)Nc3ccccc3)on2)n1
    i | 0.83
O=C(CC1NC2CCCCC2NC1=O)Nc1ccc2c(c1)OCO2 (stereo not given)
    i | 1.3
CCOC(=O)C1(CCSC)NC(c2ccco2)C2C(=O)N(CC)C(=O)C21 (stereo not given)
    i | 0.16
O=C1[C@H]2[C@H](ON3CCCC[C@H]23)C(=O)N1c1ccc(Cl)cc1
    i | 4.2
COc1ccc(Oc2cnc3ccccc3n2)cc1
    -6* | 0.17*

# Entries above with a furan ring, fused or not (13):
# Below each compound – KCNQ2 inh | KCNQ2 inh baseline
Cc1cc(NC(=O)CSc2nc3cc(C(=O)NCCCOC(C)C)ccc3c(=O)n2Cc2ccco2)no1
    i | 1.8
COc1cc(NS(=O)(=O)c2ccc(Br)cc2)c(OC)cc1NC(=O)c1ccco1
    i | -0.34
CCn1c(=O)cc(SCC(=O)NCc2ccco2)c2ccccc21
    i | 0.8
O=C(c1ccoc1)N1CCC(CO)(CCc2ccccc2)CC1
    i | -0.38
COc1ccccc1CN(C(=O)CNC(=O)c1ccco1)C(C(=O)NCC1CCCO1)c1ccc(OC)c(OC)c1 (stereo not given)
    i | -0.82
CCC(C(=O)NCCCN1CCN(C)CC1)n1nc(C)n2c(cc3occc32)c1=O (stereo not given)
    i | 0.45
O=C(Nc1cccc2ncccc12)c1ccc([N+](=O)[O-])o1
    i | -1.6
COCc1ccc(CN2CCCC(CO)(Cc3cccc(OC)c3)C2)o1 (stereo not given)
    i | -1.6
O=c1c2ccccc2nc(-c2ccco2)n1Cc1ccccc1
    i | -0.82
Cc1cc(S(=O)(=O)Nc2ccc(C(=O)NCC(c3ccco3)N3CCCC3)cc2)ccc1F (stereo not given)
    i | -0.15
Cc1ccccc1CNC(=O)CCCn1ncn2c(cc3occc32)c1=O
    i | -0.23
c1coc(CNC2CCCCCCC2)c1
    i | 1.2
CCOC(=O)C1(CCSC)NC(c2ccco2)C2C(=O)N(CC)C(=O)C21 (stereo not given)
    i | 0.16
